GIRK2 activ: activators of human GIRK2 potassium channels | HEK293-GIRK2 thallium flux, Thallos fluorescence | calls only for hits at 25 µM | actives 0.05% (n = 63,000) | AID 1259325, 2017;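 active = among the strongest 0.2% of first-round signals and kept after retests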;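 also: first round at about 10 µM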
Target sequence (P48051 whole entry, looked up): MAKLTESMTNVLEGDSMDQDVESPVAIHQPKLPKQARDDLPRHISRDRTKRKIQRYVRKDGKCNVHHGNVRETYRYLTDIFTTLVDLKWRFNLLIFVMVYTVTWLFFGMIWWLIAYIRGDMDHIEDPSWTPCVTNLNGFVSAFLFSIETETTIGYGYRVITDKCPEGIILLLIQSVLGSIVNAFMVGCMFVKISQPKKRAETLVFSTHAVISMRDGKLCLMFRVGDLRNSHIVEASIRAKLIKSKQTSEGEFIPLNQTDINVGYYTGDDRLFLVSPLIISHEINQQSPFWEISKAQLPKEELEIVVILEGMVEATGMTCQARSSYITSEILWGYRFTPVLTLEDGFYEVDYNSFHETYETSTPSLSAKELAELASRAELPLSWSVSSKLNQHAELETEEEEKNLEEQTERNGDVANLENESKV
Calls only; i = inactive.

SMILES | GIRK2 activ
O=C(Cn1cnc2ccccc21)NCC#CCOc1cccc(C(F)(F)F)c1 | i
CCCOC(=O)c1ccc(Oc2coc3cc(OC(=O)C(C)C)ccc3c2=O)cc1 | i
COCCN(Cc1ccncc1)C(=O)Nc1cc(OC)cc(OC)c1 | i
O=C(/C=C\c1ccc2c(c1)OCO2)N1CCN(Cc2nnnn2-c2ccc(F)cc2)CC1 | i
COc1ccc(NC(=O)CCCSc2ccc(F)cc2)cc1 | i
COc1ccccc1-c1coc2cc(OCC(=O)c3ccc(Cl)cc3)ccc2c1=O | i
O=C(Cn1nc2c(c1NC(=O)CCCc1ccccc1)CSC2)NCc1ccco1 | i
CCOCCn1c(=O)c2c(nc3n2CC(C)CN3c2cc(C)cc(C)c2)n(C)c1=O (centres undefined) | i
CCOC(=O)N1CCN(C(=O)c2cccc(-n3cnnn3)c2)CC1 | i
CN(C(=O)c1cc(OCc2ccccc2)no1)c1ccccc1 | i
O=[N+]([O-])c1ccc(CSc2nnc(-c3ccc(S(=O)(=O)N4CCCCCC4)cc3)o2)cc1 | i
Cc1nc(N2CCN(C(=O)C(C)Oc3ccccc3)CC2)cc(-n2cccc2)n1 (centres undefined) | i
Cc1nc2c(sc3cccc(F)c32)c(=O)n1CC(=O)NC1CCCC1 | i
Cc1nn(-c2ccccc2)c(C)c1N1CCN(C(=O)c2cc(-c3ccccc3)n[nH]2)CC1 | i
CS(=O)(=O)c1ccc(NC(=O)c2cccc(S(=O)(=O)N3CCCC3)c2)cc1 | i
Cc1ccc(N2CCCC(C(=O)NCc3ccccc3Cl)C2)nn1 (centres undefined) | i
COC(=O)c1c[nH]n2c(=O)cc(CS(=O)(=O)c3ccc(C)cc3C)nc12 | i
Cc1ccc(Cl)cc1-n1nnc(-c2nc(-c3ccc4c(c3)OCO4)no2)c1N | i
CS(=O)(=O)c1ccc(Nc2nc(CC(=O)NCc3ccccn3)cs2)cc1 | i
CCOC(=O)c1c(NCc2ccco2)c2cccc(Cl)c2[nH]c1=O | i
COc1ccc(CCC(=O)N2CCC(Cn3c(C)nc4ccccc43)CC2)cc1 | i
CC(NC(=O)c1ccc(Oc2nccnc2N2CCOCC2)cc1)c1ccc(F)cc1 (centres undefined) | i
CCOc1ccccc1NC(=O)CN1C(=O)NC2(CCCCC2C)C1=O (centres undefined) | i
CCOc1ccc(-c2cc3c(=O)n(CC(=O)NCc4cccc(OC)c4)ncn3n2)cc1 | i
Cc1csc(C(=O)N2CCN(CCn3ccnc3-c3ccccc3)CC2)c1 | i
Brc1ccc(-c2noc(-c3cc(-c4ccco4)n[nH]3)n2)cc1 | i
O=C(c1c(F)cccc1F)N1CCC(Cn2ccnc2-c2ccccc2)CC1 | i
Cn1c(=O)c2c(ncn2CC(=O)Nc2ccc(F)cc2F)n(C)c1=O | i
CCOC(=O)/C=c1/s/c(=C(/C#N)C(N)=O)n(-c2ccccc2)c1=O | i
O=C(c1ccc2nsnc2c1)N(Cc1ccsc1)Cc1ccco1 | i
O=C(NC1CCN(c2ccc(-c3ccccc3Cl)nn2)CC1)c1cccs1 | i
O=C(NCCCS(=O)(=O)N1CCN(c2ccccc2)CC1)C1CCCC1 | i
CCCCCCCC/C=C\CCCCCCCC(=O)C(F)(F)F | i
CCCS(=O)(=O)N1CCCc2ccc(NC(=O)Nc3ccc(F)cc3)cc21 | i
O=C(Nc1ccccc1Cl)N1CCOC2(CCOCC2)C1 | i
Cc1ccc(NC(=O)CSc2nccnc2N2CCN(c3ccccc3)CC2)c(Br)c1 | i
O=S(=O)(c1ccc(OC(F)(F)F)cc1)N1CC(c2nc(C3CC3)no2)C1 | i
Cc1cc(NS(=O)(=O)c2ccc(NC(=O)c3ccc(Cl)s3)cc2)no1 | i
Cc1nc(-c2nnc(NC(=O)Cc3ccc(S(C)(=O)=O)cc3)o2)cs1 | i
COc1ccc(CCC(=O)NCC(O)c2ccoc2)cc1 (centres undefined) | i
COC(=O)c1ccc(/C=C2\Oc3cc(OC(=O)C(C)C)ccc3C2=O)cc1 | i
COc1cc(-c2cc(C(=O)N/N=C\c3ccc(N(C)C)cc3)[nH]n2)ccc1OC(C)C | i
CC(C(=O)NCc1cccs1)n1nc(-c2ccccc2)ccc1=O (centres undefined) | i
CC(=O)c1cc(Cl)cc(Cl)c1OCc1ccccc1 | i
O=C(NCCc1nc2c(c(C(F)(F)F)n1)CCCC2)c1ccc(Cl)s1 | i

4 of the compounds above, as labelled records:
CN(C(=O)c1cc(OCc2ccccc2)no1)c1ccccc1
  GIRK2 activ: i
O=[N+]([O-])c1ccc(CSc2nnc(-c3ccc(S(=O)(=O)N4CCCCCC4)cc3)o2)cc1
  GIRK2 activ: i
Cc1nc(N2CCN(C(=O)C(C)Oc3ccccc3)CC2)cc(-n2cccc2)n1 (centres undefined)
  GIRK2 activ: i
Cc1nc2c(sc3cccc(F)c32)c(=O)n1CC(=O)NC1CCCC1
  GIRK2 activ: i

Exported with tabs: entries from further up
Structure	GIRK2 activ
CCCS(=O)(=O)N1CCCc2ccc(NC(=O)Nc3ccc(F)cc3)cc21	i
O=C(NCCc1nc2c(c(C(F)(F)F)n1)CCCC2)c1ccc(Cl)s1	i
O=C(NCCCS(=O)(=O)N1CCN(c2ccccc2)CC1)C1CCCC1	i
O=S(=O)(c1ccc(OC(F)(F)F)cc1)N1CC(c2nc(C3CC3)no2)C1	i

Further compounds:
SMILES | GIRK2 activ
COC(=O)c1ccc(OC)c(N2C(=O)C3SC(N)=C4C(=O)Oc5ccccc5C4C3C2=O)c1 (centres undefined) | i
COc1ccccc1-c1nc(CSc2nc(C)c(Cc3ccccc3)c(=O)[nH]2)c(C)o1 | i
COc1ccc(C(=O)Oc2ccc3c(c2)O/C(=C\c2ccc(OC)c(OC)c2OC)C3=O)cc1OC | i
COc1ccccc1C(=O)Nc1cnc(N(C)C)nc1 | i
COc1nn(C)cc1C(=O)NCCCn1ccnc1-c1ccccc1 | i
O=C(CSc1nc(-c2cccc([N+](=O)[O-])c2)cs1)N1CCCCCC1 | i
O=C(Cn1c(=O)oc2ccc(Cl)cc21)Nc1ccc(Oc2ccccc2)cc1 | i
COc1ccc(-c2noc(-c3ccc(=O)n(CC(=O)NCc4ccco4)c3)n2)cc1 | i
Cc1ccc([N+](=O)[O-])cc1S(=O)(=O)N1CCC(C(N)=O)CC1 | i
O=C1CCCC(=O)N1CCS(=O)(=O)N1CC(c2nc(-c3cccs3)no2)C1 | i
Cc1ccc(NC(=O)Cn2c(=O)c3ccccc3c3ccccc3c2=O)cc1C | i
COc1ccc(-c2coc3cc(OCCN4CCCCC4)ccc3c2=O)cc1OC | i
CCCCNC(=O)C(C)n1nc(-c2ccc3c(c2)OCO3)ccc1=O (centres undefined) | i
COc1ccc(CCNC(=O)Nc2ccc3c(c2)N(S(=O)(=O)c2ccc(F)cc2)CCC3)cc1 | i
Cc1cnc(C(=O)Nc2onc3c2CCCC3)cn1 | i
Cn1cc(-c2ccco2)nc1CCNC(=O)c1ccc(S(=O)(=O)N2CCOCC2)cc1 | i
Cc1ccc(C)c(Cn2c(C3CC(=O)N(C)C3)nc3ccccc32)c1 (centres undefined) | i
Cc1cc2oc3c(c(=O)c2cc1C)C(c1cccc([N+](=O)[O-])c1)N(CCCN(C)C)C3=O (centres undefined) | i
COc1cccc(/C=C2/SC(=S)N(c3ccc(O)cc3)C2=O)c1OC | i
Nc1ccn([C@@H]2CS[C@H](CO)O2)c(=O)n1 | i
O=C(Nc1cnc(N2CCN(c3ccccc3)CC2)nc1)c1ccc(Br)o1 | i
COCCNC(=O)N1CCC(Cn2cnc3cc(C)c(C)cc32)CC1 | i
Cc1cc(NS(=O)(=O)c2ccc(NC(=O)c3ccc(OC(C)C)cc3)cc2)no1 | i
CSc1ccc(CNC(=O)c2ccc3c(=O)nc4c(-c5ccccc5)n[nH]n4c3c2)cc1 | i
COc1cc(/C=C/C(=O)NCCc2ccccc2)ccc1OC(C)C | i
COc1cc(CNC(=O)c2sc(-c3nnn(-c4cccc(OC)c4)c3C)nc2C)cc(OC)c1 | i
COc1ccc(Cc2nnc(C3CCN(CC(=O)NCc4ccccc4)CC3)s2)cc1 | i
O=C(CSc1ccc(F)cc1)N1CCC(CSCc2ccco2)CC1 | i
OCC1CCNCC1 | i
Cn1c(=O)c2c(ncn2CC(=O)N2CC(c3nc(-c4ccccc4)no3)C2)n(C)c1=O | i

2 compounds drawn at random from the list so far:
SMILES | GIRK2 activ
COc1cc(/C=C/C(=O)NCCc2ccccc2)ccc1OC(C)C | i
Cc1cc(NS(=O)(=O)c2ccc(NC(=O)c3ccc(OC(C)C)cc3)cc2)no1 | i

Other records:
SMILES | GIRK2 activ
CCOc1ccc(-c2ccc(=O)n(CCNS(=O)(=O)c3ccc4c(c3)CCCC4)n2)cc1 | i
COc1ccc(NC(=O)Cn2cnc3c(-c4ccc(Cl)cc4)csc3c2=O)cc1OC | i
CCCc1nnsc1C(=O)N1C2CCC1COC2 | i
O=C(c1nnn(-c2ccccc2Cl)c1-c1cccnc1)N1CCc2ccccc2C1 | i
CC(C)N1CCC(CNC(=O)NCCOc2ccccc2)CC1 | i
CC(C)c1ccc(C2c3c(oc4ccc(Cl)cc4c3=O)C(=O)N2c2nccs2)cc1 (centres undefined) | i
Cn1c(=O)[nH]c(=O)c2c1nc(NCc1cccnc1)n2CCO | i
Cc1ccc(-c2csc(-c3nnn(-c4ccc(F)cc4F)c3N)n2)c(C)c1 | i
CN(C)c1ccc(-c2nc3ncc(Cl)c(N4CCN(CC(=O)Nc5nccs5)CC4)c3[nH]2)cc1 | i
CC[N+](C)(CC)CC(O)COc1ccc(C23CC4CC(CC(C4)C2)C3)cc1 (centres undefined) | i
O=C(Nc1cnc(-n2cccn2)nc1)C(c1ccccc1)c1ccccc1 | i
Cc1cc(C)n(CCNC(=O)c2coc(NC(=O)c3cc(C)on3)n2)n1 | i
COC(=O)N1CCN(CCNC(=O)Nc2ccccc2C(F)(F)F)CC1 | i
O=C(NCCCc1ccccc1)N1CC(c2nc(-c3cccnc3)no2)C1 | i
Cc1ccc(NC(=O)C(=O)NCCCN2CCCC2=O)cc1F | i
COc1ccccc1-c1cc(C(=O)N2CCN(c3ccc(-c4noc(C)n4)cn3)CC2)[nH]n1 | i
CCOC(=O)CCC(=O)Nc1ncc(C#N)s1 | i
C=C(C)Cn1c(NCc2ccc(OC)cc2)nc2c1c(=O)[nH]c(=O)n2C | i
Cc1onc(-c2ccccc2Cl)c1C(=O)NC1CCCC(OC(=O)Nc2ccccc2)C1 (centres undefined) | i
O=C(Cc1ccc(-c2ccccc2)cc1)NCC#CCN1CCCC1 | i
Cc1cnc(C(=O)NCCc2cccs2)cn1 | i
Cc1ccc(-c2cnc(SCC(=O)Nc3cc(F)ccc3F)o2)cc1C | i
Cc1cc(C)cc(N2CC(C)Cn3c2nc2c3c(=O)n(CC(N)=O)c(=O)n2C)c1 (centres undefined) | i
CCOC(=O)c1c(NC(=O)c2sc3nc(C)ccc3c2N)sc(C)c1C | i
COC(=O)c1ccc2c(=O)n(-c3cc(OC)cc(OC)c3)c(N3CCCCCC3)nc2c1 | i
O=C(Nc1ccc(F)cc1F)c1ccc(=O)n(Cc2cccc(F)c2)n1 | i
Cc1cc(C(F)(F)F)nc(CCNC(=O)Cc2ccc(S(=O)(=O)C(C)C)cc2)n1 | i
CCCCCn1c(=O)c2c(nc3n(C(C)C)c(C)cn23)n(C)c1=O | i
O=C(c1ccc2c(=O)n(-c3ccccc3)c(=O)[nH]c2c1)N1CCN(c2ncccn2)CC1 | i
COc1ccc(-c2nc3ccccc3n2CC(=O)NCCc2ccc(OC)c(OC)c2)cn1 | i
O=C(c1csc(-c2cnccn2)n1)N1CCCC1 | i
O=C(Nc1nc2c(s1)CN(C(=O)Nc1ccc(Cl)c(Cl)c1)CC2)c1ccco1 | i
O=C(c1c(F)cccc1Cl)N1CCCC(c2nnc(-c3ccccc3F)s2)C1 (centres undefined) | i
C=CCCC(=O)NCC#CCOc1ccccc1C(N)=O | i
Cc1ccc(OCC(O)CN2CCN(CCO)CC2)cc1 (centres undefined) | i
O=C(Nc1ccc2c(c1)OCO2)N(CCc1cccs1)Cc1ccoc1 | i
O=C(NCC1CCN(Cc2cccs2)CC1)C(=O)NC1CCCCCC1 | i
O=C(Cc1cccs1)NCCN1CCN(c2ccccc2)CC1 | i
Cc1ccc(S(=O)(=O)N(C)c2ccc(OCC(=O)N3CCOCC3)cc2)cc1 | i
CNC(=O)Oc1ccc2c(c1)[C@]1(C)CCN(C)C1N2C (some centres undefined) | i
C#CCCNC(=O)CN(C)S(C)(=O)=O | i
Cc1ccc(-c2ccc3nn(CC(=O)N4CCN(c5ccccc5)CC4)c(=O)n3n2)cc1C | i
CCOc1ccccc1-c1noc(CSc2nc3cc(-c4ccccc4)sc3c(=O)n2C)n1 | i
COC(=O)c1ccc(CSc2nnc(CCc3c(C)[nH]c(=O)[nH]c3=O)o2)o1 | i
Cc1cc(N2CCOCC2)n2nc(C)c(-c3ccc(Cl)cc3)c2n1 | i
COCC(=O)N1CCCc2ccc(NC(=O)Cc3cn(C)c4ccccc34)cc21 | i
COc1ccc(CNC(=O)Nc2nc3c(s2)CN(S(C)(=O)=O)CC3)cc1 | i
CCOc1ccc(-n2nnc3c(=O)n(Cc4nc(-c5ccc(Cl)cc5)no4)cnc32)cc1 | i
COc1ccc(S(=O)(=O)N2CCN(c3cccc(Cl)c3)CC2)cc1[N+](=O)[O-] | i
COC(=O)N1CCc2ccc(F)cc2C1C(=O)Nc1ccc(OC)c(Cl)c1 (centres undefined) | i
COc1cccc(CN(c2ccc(F)c(F)c2)S(=O)(=O)c2cccn3c(C)nnc23)c1 | i
Cc1ccc(-c2csc3c(=O)n(CCC(C)C)cnc23)cc1 | i
Cc1cc(C(=O)Nc2nc(C(=O)Nc3cccc(NS(C)(=O)=O)c3)co2)no1 | i
Cc1ncn(CC(=O)Nc2ccc(Cl)c(C(F)(F)F)c2)c(=O)c1C | i
O=C(NCCC(O)c1cccc2ccccc12)C(=O)Nc1cccc(N2CCCC2=O)c1 (centres undefined) | i

2 successive entries already listed, for reference:
SMILES | GIRK2 activ
Cc1ccc(-c2cnc(SCC(=O)Nc3cc(F)ccc3F)o2)cc1C | i
Cc1cc(C)cc(N2CC(C)Cn3c2nc2c3c(=O)n(CC(N)=O)c(=O)n2C)c1 (centres undefined) | i

An excerpt; count on the stated rates, not on these rows.
